# Source: PubChem BioAssay
# Menin MLL FP FL = inhibitors of human menin-MLL interaction, wild-type MLL peptide. Fluorescence polarization, fluorescein-MLL peptide displacement from menin. FP activity change, % at 61.4 µM. 290,000 tested, under 10 active; inconclusive = falling polarisation curve, or a change in total fluorescence; inactive = total fluorescence flat and polarisation flat or rising; no compound was filed as active; the % refers to the polarisation; negative = inhibition;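 also: % of control where 0% means no effect; inhibitors lower the polarisation; unlabelled MLL peptide was the positive control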
# TRPV1 potentiator = enhances activation of the human vanilloid receptor TRPV1. Q8NER1. TRPV1-expressing cells, Fluo-8 calcium influx, capsaicin EC20 potentiation; host cell line not named in the record; control for the full effect not named in the record. potentiation, % at 8.33 µM. hit rate 0.02% among 320,000; active means potentiation above 80%; inconclusive means 30% to 80%; inactive means below 30%; also: 0% is about no effect
# Target sequence (Q8NER1 whole entry, looked up): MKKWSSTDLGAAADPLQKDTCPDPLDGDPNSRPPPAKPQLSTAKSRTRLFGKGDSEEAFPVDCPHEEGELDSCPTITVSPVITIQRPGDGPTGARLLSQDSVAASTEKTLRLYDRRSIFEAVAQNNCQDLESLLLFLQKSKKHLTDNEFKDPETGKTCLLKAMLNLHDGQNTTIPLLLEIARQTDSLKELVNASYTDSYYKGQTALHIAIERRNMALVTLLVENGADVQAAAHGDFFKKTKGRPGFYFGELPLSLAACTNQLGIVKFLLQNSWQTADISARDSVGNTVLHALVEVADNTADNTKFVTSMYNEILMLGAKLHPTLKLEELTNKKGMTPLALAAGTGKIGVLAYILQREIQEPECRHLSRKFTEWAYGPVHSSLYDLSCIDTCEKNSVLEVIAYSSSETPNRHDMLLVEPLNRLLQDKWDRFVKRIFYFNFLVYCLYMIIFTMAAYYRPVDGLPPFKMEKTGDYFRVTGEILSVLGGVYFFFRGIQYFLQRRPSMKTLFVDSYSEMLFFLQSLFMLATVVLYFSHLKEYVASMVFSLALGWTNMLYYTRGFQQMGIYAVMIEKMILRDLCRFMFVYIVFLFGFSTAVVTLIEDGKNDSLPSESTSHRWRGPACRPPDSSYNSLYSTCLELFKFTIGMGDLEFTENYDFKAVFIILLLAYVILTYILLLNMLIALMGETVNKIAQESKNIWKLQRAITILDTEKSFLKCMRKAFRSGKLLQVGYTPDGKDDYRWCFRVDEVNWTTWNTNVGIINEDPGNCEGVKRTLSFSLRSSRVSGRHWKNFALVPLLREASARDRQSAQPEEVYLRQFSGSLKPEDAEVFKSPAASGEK
#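 Cells expressing TRPV1 were dye-loaded with Fluo-8 and read kinetically: 10 s baseline, 3 min after compound (agonist portion), then 2 min after EC20 capsaicin (allosteric enhancer portion). Calcium-bound dye fluorescence at 480/520 nm.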
# Sfp PPTase inh = inhibitors of Bacillus subtilis Sfp phosphopantetheinyl transferase; Q9F4F7; Biochemical Sfp PPTase activity, qHTS; Potency, µM, without a hit: max response, negative = inhibition, most hits filed as inhibitors; hit rate 3.5% among 310,000; active = well fitted inhibition curve with a large enough effect; inconclusive = small, poorly fitted or top-dose-only effect, or another doubt; inactive = no such curve, though single readings can be large or run the other way;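 also: the enzyme is Sfp with the accession as filed and its product quenches rhodamine fluorescence; potency is read from the fitted curve at half-maximal effect; 0% = enzyme reaction without inhibitor and -100% = no enzyme wells; top concentration of the series not given in the record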
#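 Fluorescence-quenching assay with 15 nM Sfp, 5 uM rhodamine-CoA and 12.5 uM BHQ-2-labelled ybbR peptide in pH 7.6 Hepes/MgCl2 buffer. Enzyme was pre-incubated with compound for 15 min at room temperature. Rate was taken from the 30-min fluorescence change (525/598 nm).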
# TRPML1 blocker = blocks the human TRPML1 channel; AID 624415; Q9GZU1; activity change, negative = inhibition, % (test concentration not listed); hit rate 0.02% among 390,000; TRPML1-inducible cells, Ca2+ dye fluorescence, FDSS; stronger effect = lower value; inhibition of EC80 agonist-evoked calcium signal; in the data active means activity change below about -50%; inconclusive means about -30% to -50%; inactive means above about -30%;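 also: stimulus is agonist 54-4 at its EC80 concentration; % is scaled to controls: 0 for no effect and ±100 for the full control effect; compound concentration not given in the record; the text of the record puts the active cut at -80%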
#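 TRPML1-DL cells, Tet-induced overnight (~16 h, 37 °C) at 1,500 cells/well, were loaded with Ca8 no-wash dye plus quencher for 45-90 min at room temperature. Compounds were pinned during FDSS kinetic reading; agonist 54-4 at EC80 (4 uM final) then added.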
# gsp antag = antagonists of gsp mutant (McCune-Albright syndrome); gsp-mutant cells, cAMP HTRF, 30 min; control for the full effect not named in the record; hit rate 0.4% among 340,000; Potency, µM (doses to about 76.9 µM), without a hit: top-dose activity change, negative = inhibition, most hits filed as inhibitors; AID 624288; active = falling curve of any shape with a large fitted effect; inconclusive = falling curve, mostly with a smaller effect; inactive = flat or rising curve; cell line not stated here;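 also: intracellular cAMP measured with PDE inhibitor Ro 20-1724 present during compound exposure; potency is read from the fitted curve at half-maximal effect; % is scaled to controls: 0 for no effect and ±100 for the full control effect; nearly all actives have a fitted effect of over 65% in size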
#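 HTRF cAMP read-out (cAMP-d2 plus anti-cAMP antibody-K in lysis buffer, 30 min RT). Before lysis, cells are exposed to compounds with […] for 30 min at 37C in DPBS containing Ca/Mg, BSA and Tween 20.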
# gsp ag = activates gsp, the McCune-Albright syndrome mutation | AID 624287 | hit rate 0.13% among 340,000 | Potency, µM (highest dose often 76.9 µM), inactives show at the highest dose activation (cAMP increase), actives largely listed as activators | gsp mutant cells, cAMP HTRF, 30 min; control for the full effect not named in the record; active = well fitted activation curve with a large enough effect; inconclusive = small, poorly fitted or top-dose-only effect, or another doubt; inactive = no such curve, though single readings can be large or run the other way; cell line not stated here;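 also: phosphodiesterase inhibitor Ro 20-1724 added with compounds to block cAMP breakdown; potency is read from the fitted curve at half-maximal effect; nearly all actives have a fitted effect of over 60% in size; about a fifth of the inactives were tested at one dose only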
#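 Cells in DMEM/10% FBS with G418 were pretreated with compounds in DMSO plus […] (300 uM stock) for 30 min at 37C. cAMP was measured by HTRF (cAMP-d2 plus anti-cAMP antibody-K) after 30 min at room temperature.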
# ClpP mod = qHTS Assay for Activators of ClpP | purified B. subtilis ClpP, FRET peptide cleavage, 20 min | AID 651965, 2013 | Potency, µM (highest dose often 57.5 µM), for the others: top-dose activity change, negative = active | hit rate 1.9% among 340,000 | ATP-dependent Clp protease proteolytic subunit (Bacillus subtilis (strain 168)), P80244; active = well fitted falling curve with a large enough effect; inconclusive = small, poorly fitted or top-dose-only effect; inactive = no such curve, though single readings can be large or run the other way; also: potency is read from the fitted curve at half-maximal effect; the source files actives as falling curves though it sought activators and does not explain the sign; nearly all actives have a fitted effect of over 65% in size; many hits overshoot -100%
# Target sequence (P80244 whole entry, looked up): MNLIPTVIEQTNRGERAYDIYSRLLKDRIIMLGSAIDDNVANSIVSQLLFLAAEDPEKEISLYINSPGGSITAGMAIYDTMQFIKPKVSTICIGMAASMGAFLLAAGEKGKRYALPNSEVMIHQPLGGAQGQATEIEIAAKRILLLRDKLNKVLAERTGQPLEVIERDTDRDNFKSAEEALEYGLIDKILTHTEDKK
#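 Buffer: 100 mM Tris/HCl pH8, 100 mM KCl, 0.05% low protease BSA, 2.5% glycerol, 0.01% Tween-20. ClpP 10 microg/mL final; 20 min RT; delta FRET normalized to ADEP and DMSO controls.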
# * marks the source's active call; other numbers are inactive results; ? = inconclusive; . = no result given; [ ] = remark or other dose.
SMILES,Menin MLL FP FL,TRPV1 potentiator,Sfp PPTase inh,TRPML1 blocker,gsp antag,gsp ag,ClpP mod
CCOc1ccccc1NC(=S)NCc1cccn1C,6.0,1,3%,-8,0%,-3%[15.4 µM],.
COc1cc(NC(=O)[C@@H](NC(=O)c2ccco2)C(C)C)c(OC)cc1NC(=O)c1ccccc1,-4.4,-10,12%,-3,-13%,-2%[15.4 µM],.
CCN(CC)c1ccc(-n2c(C)c(C(C)=O)c(C(C)=O)c2C)cc1,1.0,-16,-7%,-2,?,0%,0.5%
CCOC(=O)C1=C(Cn2cnc3ccccc32)NC(=O)NC1c1ccc(OC)cc1 (configuration not stated),-0.1,12,3%,-6,-2%,0%,-1.7%
O=C1c2cnc3ncnn3c2CC2c3ccccc3CCN12 (configuration not stated),?,0,22%,-11,-3%,28%[15.4 µM],.
CCCC[C@@H]1CNC(=S)N1CCCc1cc(OC)c(OC)c(OC)c1,-4.0,13,14%,-14,-3%,.,1.2%
O=C(NCCc1ccccc1)C(=O)NCC1OCCCN1S(=O)(=O)c1ccc(F)cc1 (configuration not stated),.,-2,10%,20,13%,17%,-0.3%
Cn1c(C=O)c(-c2ccc3cc[nH]c3c2)c2ccccc21,.,-10,.,-1,-8%,4%,-5.5%
CN(NC1OC(=O)c2ccccc21)c1c([N+](=O)[O-])cc(C(F)(F)F)cc1[N+](=O)[O-] (configuration not stated),-0.6,19,13%,3,-5%,1%[15.4 µM],-0.1%
CC(C)C[C@@H](CN)NC(=O)c1nc[nH]c1C(=O)N[C@@H](CC(C)C)C(=O)CNC[C@H](C)NC(=O)c1nc[nH]c1C(=O)N[C@@H](CC(=O)O)C(=O)O,.,.,.,-4,8%,.,1.3%
COc1ccc(N/N=C(\C#N)C(=N)SCc2ccccc2)cc1,1.0,-5,-13%,-3,-14%,?,2.3%
O=C(CN1C(=O)c2ccccc2S1(=O)=O)Nc1ncccn1,.,2,.,-1,6%,-1%[15.4 µM],-8.5%
COCCCNC(=O)COc1ccc2oc3c(c2c1)CCCC3,-7.2,-12,0%,0,3%,-15%[15.4 µM],.
CC(C)Oc1ccc(CCNC(=O)C2CCC(=O)N(C3CCCCCC3)C2)cc1 (configuration not stated),2.0,-2,23%,-7,-1%,?,1.6%
COC(=O)[C@]1(C)N[C@H](CN(C)C(=O)Nc2ccc(F)cc2)[C@@H]2C(=O)N(C)C(=O)[C@@H]21,.,.,.,6,4%,.,2.1%
C=CCOc1c(Br)cc(CNc2ccc(NC(=O)C(C)C)c(OC)c2)cc1OC,3.8,-4,-17%,3,?,2%,29%
CCCn1c(SCC(=O)NCCc2ccccc2)nnc1C(C)C,2.1,5,8%,1,2%,19%[15.4 µM],.
COc1ccccc1NS(=O)(=O)c1cc(NC(=O)Nc2ccc(Cl)cc2Cl)ccc1N1CCCCC1,.,-17,-9%,-15,3%,32%[15.4 µM],-2.5%
Cc1cccc(OCCSc2nncn2C)c1,-4.6,20,14%,-9,5%,3%[15.4 µM],-0.3%
COc1ccc(N/N=C(/C#N)S(=O)(=O)C(C)(C)C)cc1,0.8,-3,17%,8,-4%,1%[15.4 µM],.
O=C(NCC1(c2ccccc2)CCCC1)C(=O)N1CCOCC1,0.8,-3,-28%,-18,17%,-38%[inhibitor],-1.3%
Cc1ccc(OCC(=O)NC2CCCCCC2)cc1C,-2.2,4,8%,-12,2%,?,-0.2%
O=C(Oc1ccc(N(Cc2cccs2)C2=NS(=O)(=O)c3ccccc32)cc1)c1ccccc1,1.5,7,13%,8,2%,7%,-0.1%
CCOc1ccc(Cl)cc1CSc1n[nH]c(CC)n1,-0.9,8,7%,-1,-7%,-12%,1.6%
O=C(CCN1C(=O)/C(=C/c2ccc3c(c2)OCO3)SC1=S)Nc1ccccc1,5.3,5,7%,18,-4%,-4%,?
CCC(=O)Nc1ccc(C(=O)NNC(=O)c2cccc(C)c2)cc1,-7.1,6,22%,21,2%,15%,-2.8%
O=C(CSc1ccccn1)Nc1nc2c(ccc3ccccc32)s1,-0.3,15,1%,-17,?,-6%,1.7%
Cc1cn([C@H]2C[C@H](O)[C@@H](CNC(=O)[C@@H]3CCCN3Cc3ccccc3)O2)c(=O)[nH]c1=O,.,.,.,36,.,-34%[inhibitor],0.4%
Cc1cc(C)c(SCCc2ccncc2)c(C)c1,3.9,-7,-2%,4,-13%,?,-1.6%
O=[N+]([O-])c1ccc(NC(=S)N2CCCC2)cc1,2.5,3,11%,21,-6%,-5%,0.5%
N=c1sccn1CC(=O)Nc1ccc(S(=O)(=O)N2CCOCC2)cc1,5.2,16,10%,-9,14%,6%,-0.7%
CCCCCCOC(=O)Sc1nc2ccccc2o1,0.1,-1,45µM*,-3,12%,-6%,0.7%
O=C1CCC(C(=O)N2CCCCO2)CN1CCc1ccccc1 (configuration not stated),-2.7,5,10%,-1,10%,-2%,-0.5%
O=C(COC(=O)C1C2CC3OC(=O)C1C3C2)Nc1ccc(F)cc1 (configuration not stated),-0.7,25,10%,4,8%,-13%,.
C=CCn1c(O)c(N=Nc2nc3ccccc3c(=O)n2-c2ccccc2)c2ccccc21,-0.5,5,7%,3,0%,3%,-12%
O=C(COC(=O)/C=C/c1ccc([N+](=O)[O-])cc1)NCC1CCCCC1,.,.,.,-6,9%,14%,-2.6%
COCCNC(=O)Cn1ccc2cc(S(=O)(=O)N3CCCCC3)ccc21,0.4,-3,19%,2,-17%,-13%,1.3%
CCCNC(=O)CN(c1ccc(F)c(Cl)c1)S(C)(=O)=O,0.5,22,20%,8,3%,7%,1.2%
CC(C)NC(=O)N(C)C[C@H]1Oc2ccc(NC(=O)Cc3ccccc3)cc2C(=O)N([C@H](C)CO)C[C@@H]1C,.,.,.,7,6%,.,-2.1%
Cc1ccc(Cl)cc1NC(=O)COC(=O)c1ccc(N2CCCC2)c([N+](=O)[O-])c1,-1.3,0,-5%,.,.,.,.
COc1cc(/C=C2/C(=O)NN(c3cccc(C)c3)C2=O)ccc1OC(=O)c1ccco1,2.0,12,45µM*,-9,25%,-1%,1.9%
CCCCC[n+]1ccn(C2=C([O-])c3ccccc3C(=O)/C2=N\S(=O)(=O)c2ccc(Cl)cc2)c1,-1.1,2,15%,-6,-4%,-29%,2.0%
CNC(=O)c1c(Cl)cnn1-c1ccc(F)cc1,4.9,14,6%,5,3%,-26%,.
CCOC(=O)N=Nc1c(O)n(C)c2ccccc12,1.7,2,8%,-13,-4%,1%,-14%
CC1CCN(Cc2cc(=O)oc3cc(O)c(Cl)cc23)CC1,?,0,9%,-8,-6%,1%,3.8%
O=C(C1=C(O)C(=O)N(c2ncccn2)C1c1cccc(Cl)c1)c1ccco1 (configuration not stated),?,-14,56µM*,-2,4%,26%,-1.0%
COc1ccc(CCNC(=O)COC(=O)C23CC4CC(CC(C4)C2)C3)cc1,1.7,-2,7%,-11,7%,7%[15.4 µM],-1.8%
CCOC(=O)CC1C(=O)NCCN1C(=O)c1cc2c(=O)n3ccccc3nc2s1 (configuration not stated),2.9,0,-3%,.,.,.,.
Nc1ccn(Cc2ccc(F)cc2)n1,-3.3,-5,25%,-8,10%,?,-0.4%
COc1ccc(S(=O)(=O)Cc2ccc(C(=O)N3CCN(Cc4ccccc4)CC3)o2)cc1,-1.4,8,7%,23,-11%,?,0.7%
CCOc1ccccc1N1CCN(C(=O)c2cc(-c3cccnc3)nc3c(Cl)cccc23)CC1,.,1,-17%,16,0%,1%,2.9%
Cc1c2cn[nH]c(=O)c2c(C)n1Cc1ccc(F)cc1,20,7,0%,1,3%,19%,-15%
O=C(CCC(=O)N1CCN(S(=O)(=O)c2ccccc2)CC1)NC1CCCc2ccccc21 (configuration not stated),0.9,-12,13%,-2,-15%,?,-0.6%
O=C(NCc1nnc2n1CCCCC2)c1ccc(Cl)cc1Cl,-1.0,-3,7%,21,7%,-13%,1.3%
CC(C)(C)OC(=O)N1C2C=CC1C1=COCCN1C2=O (configuration not stated),-0.1,.,10%,-3,.,.,.
O=C(CCn1c(SCC(=O)NCc2ccco2)nc2ccccc2c1=O)NCCc1ccccc1,0.3,12,5%,-20,-9%,-23%,-0.9%
Cn1c(=O)n(C)c2cc(S(=O)(=O)NCCOCCO)ccc21,4.4,-2,18%,5,7%,-17%,-1.7%
O=C1/C(=C/c2ccccn2)SC(=S)N1NS(=O)(=O)c1ccccc1,2.1,?,-1%,12,-28%,-41%[inhibitor],-1.0%

# Given as tab-separated lines: part of the list above.
compound	Menin MLL FP FL	TRPV1 potentiator	Sfp PPTase inh	TRPML1 blocker	gsp antag	gsp ag	ClpP mod
CC(C)C[C@@H](CN)NC(=O)c1nc[nH]c1C(=O)N[C@@H](CC(C)C)C(=O)CNC[C@H](C)NC(=O)c1nc[nH]c1C(=O)N[C@@H](CC(=O)O)C(=O)O	.	.	.	-4	8%	.	1.3%
COc1ccc(N/N=C(\C#N)C(=N)SCc2ccccc2)cc1	1.0	-5	-13%	-3	-14%	?	2.3%
O=C(CN1C(=O)c2ccccc2S1(=O)=O)Nc1ncccn1	.	2	.	-1	6%	-1%[15.4 µM]	-8.5%
COCCCNC(=O)COc1ccc2oc3c(c2c1)CCCC3	-7.2	-12	0%	0	3%	-15%[15.4 µM]	.
CC(C)Oc1ccc(CCNC(=O)C2CCC(=O)N(C3CCCCCC3)C2)cc1 (configuration not stated)	2.0	-2	23%	-7	-1%	?	1.6%
COC(=O)[C@]1(C)N[C@H](CN(C)C(=O)Nc2ccc(F)cc2)[C@@H]2C(=O)N(C)C(=O)[C@@H]21	.	.	.	6	4%	.	2.1%
C=CCOc1c(Br)cc(CNc2ccc(NC(=O)C(C)C)c(OC)c2)cc1OC	3.8	-4	-17%	3	?	2%	29%
